ugtP null kill: growth inhibition of ugtP-null S. aureus, primary screen, RN4220 ugtP deletion, OD600; 16 h; some inactives read as strong as hits; growth inhibition, % (no concentration beside the values); 0.54% of 330,000 active;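 active = z-score under -3 and OD600 up to 0.15 on both plates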;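 note: plate controls were untreated wells for no effect and antibiotic for full effect; wells of about 80 µL received 100 nL stock; the first replicate is given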
BJeLR lethal: MLPCN primary cell-based screen for lethality selective to Ras in HRASV12 cells; 0.17% of 300,000 active; BJeLR (HRASV12) viability, CellTiter-Glo ATP luminescence, 48 h; reference of the scale not given here; AID 1554, 2009; inhibition, % (test concentration not listed);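 active = replicate mean above 50%; inconclusive = above 50% but judged a plate artefact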;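 note: 50 nL library stock added to about 25 µL; numbers are from one replicate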
Sa RN4220 lethal: growth inhibition of S. aureus RN4220, primary screen, OD600 | inhibition, % (no concentration beside the values) | 16 h | AID 1259311, 2017 | 0.33% of 330,000 active;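 active = z-score of -3 or lower and OD600 up to 0.18 on both plates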;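 note: plate controls were untreated cells for no effect and reference antibiotic for full effect; stock transfer was 100 nL into about 80 µL; one replicate is shown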
Mtb hypoxia inh: PubChem AID 1159583; M. tuberculosis hypoxia-regulated fluorescent reporter, fluorescence; fluorescence inhibition, % (no concentration beside the values); 0.1% of 300,000 active;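 active = 35 to 45% if threefold the growth effect, above 45% if 1.5-fold the growth effect; inactive = the rest, general growth blockers included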;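 note: wells of about 50 µL received 100 nL stock; 0% = vehicle wells and 100% = reference inhibitor wells; whole bacteria with a GFP reporter of the hypoxia response; strong numbers were not always called active; many hits fall short of the cut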
PrP 5UTR inh: inhibition of PrP 5' UTR reporter expression; AID 488862, 2010; inhibition, % (test concentration not listed); cell-based PrP 5' UTR mRNA reporter, plate reader; 0.35% of 340,000 active;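 active = every replicate at 50% or more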;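 note: 0 = median of the neutral control wells; tested in H4 reporter cells; numbers are from one replicate; inactives centre near -14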
Autofluor counter: compound fluorescence in toxin protease inhibitor counterscreen | compound autofluorescence counterscreen, microsphere flow cytometry; stronger effect = higher value | fluorescence intensity (concentration not given with the values) | 3.1% of 360,000 active | AID 624483;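 active = at least 3 SD above the mean of all compounds, about 16000 in these data; inconclusive = too few beads counted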;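 note: 100 nL of 1 mM stock went into each well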
Mtb hypoxia inh growth: also measured in Mtb hypoxia inh; calls as there; growth inhibition, %; measured here: M. tuberculosis growth (absorbance);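 0% = vehicle and 100% = reference antibiotic; read after six days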
Active calls of the source: *; ? = inconclusive; . = no result given.

molecule,Mtb hypoxia inh growth,BJeLR lethal,Sa RN4220 lethal,Mtb hypoxia inh,ugtP null kill,PrP 5UTR inh,Autofluor counter
Cc1ccc(S(=O)(=O)NCCC(=O)N2CCN(S(=O)(=O)c3ccccc3)CC2)cc1C,-0.5,3.3,-0.4,4.6,2.8,-5.5,?
Cc1ccc(C2C=C(c3ccc4c(c3)OCO4)Nc3ncnn32)cc1 (configuration not stated),.,-3.5,.,.,.,-18.4,2997
O=C(CCN1c2ccccc2Sc2ccccc21)OCC(=O)N1CCN(C(=O)c2ccco2)CC1,.,-14.8,2.8,.,1.9,-11.8,2393
O=C(COc1ccc(Br)cc1F)NC1CCN(Cc2ccccc2)CC1,2.4,-3.7,21.7,4.1,14.1,-17.2,2525
O=C(N/N=C/c1cc([N+](=O)[O-])ccc1O)c1cccc2ccccc12,.,-9.5,.,.,.,0.1,5346
O=C1NC2(CCCCC2)Cc2ccccc21,6.5,6.4,2.2,6.9,-0.1,-16.5,12724
Cc1ccc(N2C(=O)[C@@H]3C(c4ccc(F)cc4)=NO[C@@H]3C2=O)cc1,.,-2.5,0.8,.,-1.7,-18.4,2706
COc1ccc(-c2cc(C(=O)Nc3ccc(O)cc3)c3ccccc3n2)cc1OC,15.0,2.7,1.7,6.2,5.0,-24.5,3586
CCCN1Cc2cccc(C(=O)NCCCOC(C)C)c2C1=O,.,-2.1,3.3,.,9.1,-22.2,3345
COc1ccc(C2CC(=O)c3cc(OC)ccc3O2)cc1 (configuration not stated),8.4,.,4.2,14.5,9.9,-30.7,?
COc1ccc(CN(C)C(=O)Cc2ccc(S(=O)(=O)N3CCOCC3)s2)cc1OC,2.4,.,2.8,5.4,4.8,-4.3,4177
COC(=O)c1ccccc1NC(=O)CCS(=O)(=O)c1ccc(Br)s1,6.2,-4.9,8.8,2.8,0.0,-13.3,3313

A draw from above in order of count of non-hydrogen atoms, rising.
molecule,Mtb hypoxia inh growth,BJeLR lethal,Sa RN4220 lethal,Mtb hypoxia inh,ugtP null kill,PrP 5UTR inh,Autofluor counter
O=C1NC2(CCCCC2)Cc2ccccc21,6.5,6.4,2.2,6.9,-0.1,-16.5,12724
COC(=O)c1ccccc1NC(=O)CCS(=O)(=O)c1ccc(Br)s1,6.2,-4.9,8.8,2.8,0.0,-13.3,3313
Cc1ccc(S(=O)(=O)NCCC(=O)N2CCN(S(=O)(=O)c3ccccc3)CC2)cc1C,-0.5,3.3,-0.4,4.6,2.8,-5.5,?

(more compounds)
molecule,Mtb hypoxia inh growth,BJeLR lethal,Sa RN4220 lethal,Mtb hypoxia inh,ugtP null kill,PrP 5UTR inh,Autofluor counter
CCOC(=O)c1sc(NC(=O)C2CC(=O)N(c3ccc4c(c3)OCCO4)C2)nc1C (configuration not stated),5.8,.,-0.4,5.7,-1.7,-2.6,3824
O=C(ON=C1CCS(=O)(=O)c2sccc21)c1c(F)cccc1F,7.7,.,3.9,6.3,2.0,.,.
Cn1c(SCC(=O)N(Cc2ccccc2)C(C)(C)C)nc2ccccc21,5.4,1.2,1.1,-4.5,-14.4,-14.5,11338
CC1=CC(C)(C)NC(=O)N1c1ccc(C)cc1,0.7,-2.9,0.4,12.5,0.5,10.6,4368
COc1ccc(N2CCN(C(=O)CSc3ccccc3N)CC2)cc1,6.5,-4.9,8.2,5.1,4.9,-16.9,9272
O=C(Nc1ccc(C(=O)O)cc1)/C(=C/c1cccc(Br)c1)NC(=O)c1ccco1,6.9,0.0,7.7,-8.9,6.0,-19.9,1999
CCn1c2c(c(C)cc1=O)C(=O)CC(C)(C)C2,8.3,-11.4,4.1,6.1,4.7,-47.3,2853
CCc1ccccc1OCC(=O)NCC1COc2ccccc2O1 (configuration not stated),8.4,.,2.3,6.8,-1.4,-33.6,3992
Cc1ccc(C(c2c(C)[nH][nH]c2=O)c2c(C)[nH][nH]c2=O)cc1,8.0,3.3,4.8,13.2,5.8,4.1,2991
COc1cc(CNn2cnnc2)ccc1OCC(=O)NC1CCCCC1,13.4,-4.8,1.6,11.5,-2.7,-22.9,24056*
CC(C)(C)OC(=O)NCCCCCc1nnc(SCc2ccccc2F)o1,-2.6,-11.8,4.3,-2.6,1.2,-16.7,6092
NC(=O)NN=Cc1cc(Br)ccc1OC(=O)c1ccccc1,-0.1,.,5.3,0.3,-4.2,.,.
CCc1cc2c(=O)[nH]c(Cc3ccc(OC)cc3)nc2s1,5.2,7.6,0.0,-6.0,10.2,-9.9,2031
CC1(C)CC(=O)CC(=NNC(=O)COc2ccc3ccccc3c2Br)C1,0.5,.,1.4,17.3,14.3,.,.
CCC(=NNC(=O)c1cccnc1)c1ccc2c(c1)OCCO2,4.9,.,5.7,4.7,2.3,.,.
COc1ccccc1OCC(=O)N/N=C/C=C/c1ccc([N+](=O)[O-])o1,.,3.0,.,.,.,-27.0,2633
CC(Oc1ccccc1C(N)=O)C(=O)Nc1ccc(S(=O)(=O)N2CCCC2)cc1 (configuration not stated),9.3,0.9,1.9,4.0,0.0,-13.4,5565
COC(=O)/C=C1/S/C(=N/NC(=O)c2ccccc2)NC1=O,.,-7.1,4.6,.,4.9,-2.3,2168
COc1ccc(C)cc1NC(=O)/C=C/c1ccc(OC)c(S(=O)(=O)N2CCOCC2)c1,3.4,.,1.0,0.3,6.7,-14.3,8746
O=C1CC(c2ccc3c(c2)OCO3)CN1 (configuration not stated),7.4,-3.0,4.8,10.2,-3.9,-14.4,2902
COc1ccc(-c2ccc(SCC(=O)N3CCCC3)nn2)cc1OC,8.8,-13.9,3.4,7.3,1.9,-29.4,19444*
COc1ccc(Br)cc1S(=O)(=O)Nc1ncn[nH]1,-2.4,5.5,1.2,10.6,7.2,-18.1,6798
COC(=O)c1ccc2c(=O)n(CCN3CCOCC3)c(=S)[nH]c2c1,10.3,1.9,2.5,8.3,0.8,-3.1,10538
O=C(CCC(=O)N(CC(=O)NC1CCCC1)Cc1ccc2c(c1)OCO2)Nc1nccs1,12.2,2.2,10.3,1.0,3.5,.,.
CN(c1ccccc1)S(=O)(=O)c1cccc(C(=O)OCC(=O)NCCCN2CCCC2=O)c1,4.3,-6.2,-2.2,6.8,5.6,-7.2,3137
CC(=O)Nc1ccc(Nc2nc(-c3c(C)nc4ccccn34)cs2)cc1,-14.0,45.3,-2.8,-4.1,-12.5,.,.
CCC(C)NC(=O)c1ccc(COc2ccccc2Cl)cc1 (configuration not stated),2.5,4.3,4.9,-0.6,-7.2,-44.4,21804*
CN1CCN(C(=O)C2=C[C@H](c3csc4ccccc34)C[C@H](OCc3ccc(CO)cc3)O2)CC1,.,-2.7,.,.,.,-8.3,3514
c1ccc2sc(SCc3ccc(-c4nnco4)cc3)nc2c1,.,0.9,10.5,.,-1.4,-102.4,4845
COC(=O)c1cc(C)sc1NC(=O)CN1CCN(C(=O)C2CCCO2)CC1 (configuration not stated),8.4,4.5,2.1,4.9,0.2,-33.0,5329
Cc1ccc(S(=O)(=O)N2CCC[C@H]2C(=O)OCc2cc(=O)oc3cc(C)ccc23)cc1,2.9,.,12.6,7.7,2.6,-17.5,4175
COc1cc(/C=N/NC(=O)c2ccc(O)cc2)ccc1OCC(=O)N1CC(C)OC(C)C1 (configuration not stated),.,1.3,.,.,.,-20.2,4554
O=C(NN=Cc1cccc(Br)c1)c1ccc(Br)cc1,8.5,.,-4.1,-1.3,-14.8,.,.
CCc1ccc(NC(=O)Cn2cnc3sc(C)c(S(=O)(=O)N4CCOCC4)c3c2=O)cc1,1.1,-11.9,4.2,-2.0,5.6,-9.6,4148
Cc1ccc(S(=O)(=O)NCC(=O)OC2CCOC2=O)cc1 (configuration not stated),3.3,-5.0,-15.1,14.0,-1.4,-14.2,3197
CCNC(=O)c1ccc(NC(=O)CC2SC(N3CCCC3)=NC2=O)cc1 (configuration not stated),2.0,-7.6,0.3,2.5,-2.5,1.6,4630
Cc1ccc(S(=O)(=O)N2CCN(C(=O)CC(C)C)CC2)cc1,4.6,-2.2,-0.4,-1.8,-2.4,-27.8,4590
COc1cc(C(=S)N2CCOCC2)ccc1OS(=O)(=O)c1ccc(C)cc1,.,-8.7,.,.,.,-7.7,3924
CC(C)(C)/C(O)=C(/C#N)c1nc2ccccc2[nH]1,.,7.0,.,.,.,-7.4,23471*
CCOC(=O)c1cccc(NC(=O)c2c(N)n(C)c(=O)[nH]c2=O)c1,-1.4,11.7,2.2,-0.7,-3.3,.,.
O=S(=O)(/N=C(/Nc1cccnc1)c1ccccc1)c1ccc(F)cc1F,-1.3,.,5.3,13.1,6.2,-25.6,?
O=C(NN=Cc1ccco1)c1cc(-c2ccc(Cl)s2)[nH]n1,1.1,.,3.3,9.1,10.6,.,.
Cc1cc(C)n2cc(CSc3nc4cc(Cl)ccc4o3)nc2n1,4.0,5.0,10.7,-6.7,0.9,-8.6,2860
NC(=O)Nc1cccc2ccccc12,.,5.4,.,.,.,-14.7,2065
CCOc1ccc(-c2nc(-c3ccccc3)no2)cc1OCC,-2.5,6.2,-0.2,-3.8,7.6,-41.2,5637
CCN(CC(=O)Nc1cc(Cl)ccc1C)C(=O)CC1CCCC1,5.1,.,6.6,7.3,10.6,-3.3,4272
COc1ccccc1CNC(=O)COC(=O)c1ccccc1-c1ccccc1,-2.5,-3.9,16.1,7.3,-0.3,-10.7,?
CCC(C)Sc1ccc(C2C3C(=O)N(CC)C(=O)C3[C@]3(C(=O)OC)CCCCN23)cc1OC (some centres not stated),16.1,.,0.3,3.7,-26.5,.,.
COc1ccc(CNC(=O)COC(=O)/C=C/c2cccc(Cl)c2)cc1,5.7,.,-4.5,0.6,4.7,-5.9,3477
CC(C)(C)N1C(=O)c2ccc(C(=O)Nc3cc(C(=O)O)cc(C(=O)O)c3)cc2C1=O,0.0,-15.9,3.0,8.7,3.7,-30.4,3826
Cn1c(SCC(=O)N2CCCCC2)nc2c([nH]c3ccccc32)c1=O,11.3,-4.3,2.4,0.9,-2.5,-8.8,5391
Cc1cccc(N/N=C/c2ccncc2)c1,.,5.6,.,.,.,-50.7,3492
CC(C)NC(=O)[C@H]1N2C(=O)c3ccccc3C2SC1(C)C (some centres not stated),4.2,-2.7,8.2,17.2,17.5,-12.7,3866
COC(=O)c1nn(Cc2ccccc2)c(=O)c2ccccc12,3.4,-12.7,-1.8,5.6,-10.6,-15.2,10007
CC(C)CNC(=O)NC(=O)COC(=O)c1cc(F)cc(F)c1,1.1,-17.4,0.9,15.9,5.8,-4.9,3320
COc1ccc(NC(=O)N(C)CC2Oc3ccc(NC(=O)Cc4ccccc4)cc3C(=O)N(C(C)CO)CC2C)cc1 (configuration not stated),2.2,.,-3.9,-6.2,-1.1,.,.
CCCC(c1nnnn1CCOC)N1CCN(c2nc3ccccc3s2)CC1 (configuration not stated),0.0,-6.6,1.7,-0.3,4.7,-15.7,2631
O=C(NC(=S)NC1CCC(O)CC1)c1ccco1 (configuration not stated),9.9,.,7.0,9.9,8.0,-12.5,8505
CC1CN(c2oc(COc3ccc(Cl)cc3Cl)nc2C#N)CC(C)O1 (configuration not stated),7.1,-0.5,-7.8,-1.7,-3.8,-8.6,3142

Compound activity deposited in PubChem by several laboratories.
